# Source: PubChem BioAssay (several laboratories)
# Calb FLC – C. albicans growth modulation with fluconazole; growth inhibition, % (test concentration not listed); AID 1979; hit rate 0.57% among 300,000; C. albicans CaCi-2 (fluconazole-resistant clinical isolate) + fluconazole, Alamar Blue growth, 48 h;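 active = most replicates above 75%; inconclusive = exactly half above 75%; inactive = most below 75%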;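 note: all wells also contain fluconazole at 8 µg/ml as a sub-toxic cotreatment; 0% = median of DMSO wells and 100% = median of geldanamycin control wells; wells of about 8 µL received 7.5 nL stock; the first replicate is given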
# RanGTP-Imp inh – disruptors of Ran-importin-beta complex formation – biochemical, FRET, CFP-Ran, YFP-importin-beta, homogeneous, primary screen; cell-free CFP-Ran/YFP-importin-beta FRET ratio; inhibition, % (concentration not given with the values); hit rate 1.1% among 300,000;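 active = most replicates above 15%; inconclusive = exactly half above 15%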;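 note: 0% = DMSO wells and 100% = Ran loaded with GDP instead of GTP; wells of about 40 µL received 100 nL stock; the first replicate is given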
# Beta cell apopt – beta cell apoptosis inhibition | INS-1E cytokine-induced death, ATP luminescence, 48 h; percent of positive-control rescue, neutral wells zero | protection from apoptosis, % (no concentration beside the values) | hit rate 0.8% among 300,000 | AID 435005;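 active = all replicates at 75% or more, or half of them and the mean; inconclusive = half reach 75% but not the mean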;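 note: 0% = cytokine-treated negative control wells and 100% = positive control rescue; higher means more ATP so stronger rescue from cytokine killing; wells of about 40 µL received 100 nL stock; the first replicate is given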
# Vif TR-FRET – HIV-1 Vif–A3G interaction blockers – biochemical, TR-FRET, GST-Vif 1-94, biotin-A3G peptide, dose response retest, primary screen (AID 1117319). inhibition, %, or IC50 in µM where a hit was titrated. TR-FRET GST-Vif / biotin-A3G peptide binding; higher % means a stronger effect; test concentration not given here; strong numbers were not always called active. hit rate 0.57% among 260,000;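 active = above the screen mean plus three standard deviations and confirmed in dose response; inconclusive = results disagree or hit not tested in dose response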;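 note: Vif residues 1-94 fused to GST binding biotinylated APOBEC3G peptide 110-148; 0% = full assay without inhibitor and 100% = GST in place of GST-Vif; retest series ran down from 100 µM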
# T cruzi inh – T. cruzi replication inhibition; T. cruzi beta-gal in NIH3T3, luminescence, 90 h; inhibition, % (test concentration not listed); hit rate 1.4% among 300,000;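 active = mean inhibition across valid replicates above about 55%, limit read from the data; inconclusive = mean below that limit but half or more replicates reach it; inactive = mean below it, under half of replicates reach it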;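 note: signal also drops with host cell toxicity which is not excluded here; 0% = plate median of DMSO wells and 100% = zero luminescence signal; higher percent means less beta-gal luminescence so fewer parasites; stock transfer was 50 nL into about 50 µL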
# Bfl-1 A1 inh – inhibitors of the anti-apoptotic protein A1, read as caspase activation; hit rate 0.066% among 330,000; caspase activation, % (test concentration not listed); AID 2462; MEF A1-2A-BIM cells, Caspase-Glo 3/7 luminescence, 3 h; percent of clofoctol response, vehicle zero;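 active = over half of replicate activation scores above 10%, or exactly half above 10 with the replicate mean above 10; inconclusive = replicate mean below 10 yet half the replicates above 10; inactive = over half of replicates below 10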;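 note: wells of about 30 µL received 50 nL stock; many hits fall short of the cut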
# rRNA inh HTS – inhibits bacterial ribosomal RNA function over humanized ribosomes; AID 720706; hit rate 1.6% among 350,000; GFP signal change (wild-type ribosome), % (test concentration not listed); E. coli WT GFP vs humanized-ribosome RFP mutants, fluorescence, 24 h; stronger effect = lower value; DMSO median 0, no signal -100;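 active = significant combined selectivity score with lowered wild-type GFP, culture density cut under 30%, mutant RFP and density less affected; inactive = any of these conditions unmet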; note: one replicate is shown; some compounds called inactive have numbers as strong as hits
# MLL AF4-AF9 inh – blocks AF4 peptide binding to human AF9 | P42568 | AlphaScreen, biotin-AF4 peptide binding to FLAG-AF9 | inhibition, % at 10 µM | hit rate 0.47% among 350,000;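 active = every replicate reaching a set inhibition limit, whatever the replicate mean, cut at about 25% in these data; inconclusive = mean inhibition reaches that limit but some replicates miss it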;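 note: 0% = plate neutral control median and 100% = total signal loss; the record names both 10 and 1 µM as test concentration; the first replicate is given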
# Target sequence (P42568 whole entry, looked up): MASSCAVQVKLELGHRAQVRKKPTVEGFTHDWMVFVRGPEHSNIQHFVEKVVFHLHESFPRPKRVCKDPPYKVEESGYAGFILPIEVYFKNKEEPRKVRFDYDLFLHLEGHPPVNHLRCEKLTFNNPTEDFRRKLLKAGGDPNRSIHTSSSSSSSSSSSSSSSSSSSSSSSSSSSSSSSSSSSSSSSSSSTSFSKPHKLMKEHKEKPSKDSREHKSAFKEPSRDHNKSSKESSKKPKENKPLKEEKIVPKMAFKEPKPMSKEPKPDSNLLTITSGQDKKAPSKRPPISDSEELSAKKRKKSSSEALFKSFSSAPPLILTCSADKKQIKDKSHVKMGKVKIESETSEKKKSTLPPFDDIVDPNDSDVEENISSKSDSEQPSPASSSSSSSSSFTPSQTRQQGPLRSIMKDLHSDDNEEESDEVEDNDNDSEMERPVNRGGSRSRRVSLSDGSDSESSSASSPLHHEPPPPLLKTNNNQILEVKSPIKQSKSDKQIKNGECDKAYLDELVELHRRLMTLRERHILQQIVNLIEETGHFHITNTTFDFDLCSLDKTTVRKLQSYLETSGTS
# rRNA inh HTS OD600 – further read-out of rRNA inh HTS, marked with its call; OD600 change, %; measured here: OD600 growth;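 optical density of the mix in the first replicate; 0 = DMSO median and -100 = no signal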
# rRNA inh HTS RFP – recorded beside rRNA inh HTS, whose call it bears; RFP signal change, %; measured here: RFP humanized mutant strains;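 first replicate; 0 = DMSO median and -100 = no signal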
# Starred values were filed as active, the others as inactive; ? = inconclusive; · = not tested or not shown; & = joins results of further samples. This is a subset; count on the stated rates, not on these rows.
Molecule	RanGTP-Imp inh	rRNA inh HTS OD600	Calb FLC	rRNA inh HTS	rRNA inh HTS RFP	MLL AF4-AF9 inh	T cruzi inh	Beta cell apopt	Bfl-1 A1 inh	Vif TR-FRET
Cc1cc(C)nc(NC(=O)/C=C/c2ccc(Cl)cc2Cl)c1	-5.4	·	-12	·	·	·	29	7	-4.7	5%
Cc1cc(C)cc(OC(C)c2ccnc3nc(/N=C/N(C)C)nn23)c1 (stereo unspecified)	3.9	·	19	·	·	·	4	2	-1.0	5%
COc1cccc(CN2CC(C(=O)N(C)CCCC3CCCC3)CCC2=O)c1 (stereo unspecified)	2.2	-38	0	-16	-7.9	0.8	18	-2	0.8	-1%
CCCCNc1nc(Nc2ccc(C)c(Cl)c2)c2cnn(C)c2n1	4.7	7	2	-2	-3.4	-1.7	33	41	-2.0	·
C#CC(C)(CC)NC(=O)Cn1nnc(-c2ccc(S(C)(=O)=O)cc2)n1 (stereo unspecified)	1.8	·	-3	·	·	·	-14	·	0.5	-2%
COc1ccc([C@H]2/C=C\CN(Cc3ccc(N(C)C)cc3)[C@@H](C)C(=O)N2Cc2ccc(F)cc2)cc1	3.8	-4	-15	1	0.2	·	24	4	0.8	·
CCOc1cc(N2CCOCC2)c(OCC)cc1NC(=O)COC(=O)[C@@H]1CCCN1S(=O)(=O)c1ccccc1F	0.5	2	?	0	2.1	3.9	-25	-8	-0.2	18%
Cc1ccc(NC(=O)CS(=O)CC(=O)N(c2ccccc2F)C(C)C(=O)NC2CCCC2)cc1 (stereo unspecified)	-5.3	0	1	0	1.5	0.1	10	-1	-0.1	·
O=C(O)c1ccc(N2CCc3ccccc32)c([N+](=O)[O-])c1	-3.2	-9	6	-7	1.1	4.3	-8	5	-0.1	4%
N#Cc1ccsc1NC(=O)CSc1ncn[nH]1	1.3	·	23	·	·	·	-18	-4	-1.2	?
COc1c(F)c(F)c(C(=O)Nc2ccc(N3CCN(Cc4ccccc4)CC3)cc2)c(F)c1F	7.2	·	46	·	·	·	36	40	-0.2	-5%&8%
Cc1noc(C)c1C(=O)N(CC(=O)NC1CCCC1)Cc1ccccc1F	-0.7	10	-1	10	-0.9	-1.0	-14	-10	-0.4	0%
C/C(=N\NC(=S)NCCc1ccccc1)c1ccc(Cl)cc1	-3.7	·	69	·	·	·	15	1	0.9	4%
COc1cccc(CNC(=O)CCc2ccc(OC)c(OC)c2)c1	?	-3	-7	7	12	0.0	-15	-7	-1.4	4%
COc1ccc(NC(=O)CCNS(=O)(=O)c2cccc3nsnc23)cc1OC	-3.3	-9	46	-10	6.2	-3.0	-20	1	0.3	17%
CCOc1ccc(NC2OCC(O)C(O)C2O)c([N+](=O)[O-])c1 (stereo unspecified)	-3.4	18	7	21	1.9	-1.5	-11	-4	1.7	3%
COc1ccccc1CCNC(=O)Cc1cccs1	0.6	-1	20	4	-0.1	2.0	3	-4	?	·
O=C(NCc1cccs1)C1CCN(S(=O)(=O)c2cccs2)CC1	-0.2	·	30	·	·	·	3	3	0.1	19%
O=C(Nc1cccc(S(=O)(=O)N2CCCCC2)c1)c1ccccc1NS(=O)(=O)c1ccc(F)cc1	4.8	-77	54	-55	-22	0.7	-6	52	-0.2	·
CC(=O)C(C)Oc1cc(C)cc2oc(=O)c(C)c(C)c12 (stereo unspecified)	-4.8	·	-11	·	·	·	-6	·	0.1	?
CCn1cc(CN2CCCC(CNC(=O)COc3ccccc3OC)C2)c(C)n1 (stereo unspecified)	6.5	2	1	8	2.3	-0.8	39	5	0.2	·
COCCNC(=S)N1CCN(c2cccc(C(F)(F)F)c2)CC1	-3.6	-19	-1	-12	-6.9	0.0	-1	-1	-0.2	-8%
COc1ccc(C)cc1NC(=O)C1CCCN(S(=O)(=O)c2cccc3cccnc23)C1 (stereo unspecified)	-1.2	·	0	·	·	·	0	-1	-0.1	-7%
CCCC(=O)NC(=S)Nc1ccc(S(=O)(=O)Nc2ccc(OCC)cc2)cc1	-2.5	·	-10	·	·	·	16	-1	0.0	·
Cc1cc(OCc2cc(C(=O)N(C)Cc3nonc3C)no2)cc(C)c1Cl	0.4	-25	7	-3	-0.7	-1.7	9	-7	-1.4	·
O=c1cc(O)c2sc(Nc3ccc(Cl)c(F)c3)nc2[nH]1	4.0	12	7	-11	3.3	·	-3	3	-0.4	·
CC(NC(=O)c1ccccc1)C(=O)N/N=C/c1ccccc1 (stereo unspecified)	2.5	14	-3	23	3.3	-0.5	3	-6	0.7	-5%
COc1ccccc1N1CCN(C(=O)C(F)F)CC1	3.3	·	-7	·	·	·	-8	-5	2.7	42%
Clc1cccc(-c2ccc3ncnc(NCc4cccs4)c3c2)c1	·	-34	·	-21	41	0.0	·	1	-0.8	·
O=C(CC1CCS(=O)(=O)C1)Nc1ccc[nH]c1=O (stereo unspecified)	1.2	·	5	·	·	·	-7	·	0.6	1%

# Single records, from the list above. Screens in order: RanGTP-Imp inh | rRNA inh HTS OD600 | Calb FLC | rRNA inh HTS | rRNA inh HTS RFP | MLL AF4-AF9 inh | T cruzi inh | Beta cell apopt | Bfl-1 A1 inh | Vif TR-FRET
# O=c1cc(O)c2sc(Nc3ccc(Cl)c(F)c3)nc2[nH]1 is entered as 4.0 | 12 | 7 | -11 | 3.3 | · | -3 | 3 | -0.4 | ·
# O=C(CC1CCS(=O)(=O)C1)Nc1ccc[nH]c1=O (stereo unspecified) is entered as 1.2 | · | 5 | · | · | · | -7 | · | 0.6 | 1%

# Continued:
Molecule	RanGTP-Imp inh	rRNA inh HTS OD600	Calb FLC	rRNA inh HTS	rRNA inh HTS RFP	MLL AF4-AF9 inh	T cruzi inh	Beta cell apopt	Bfl-1 A1 inh	Vif TR-FRET
CC(=O)Oc1ccc(N2C(=O)c3cccc4c([N+](=O)[O-])ccc(c34)C2=O)cc1	-0.1	4	0	94	-2.0	-0.8	12	·	-0.2	-6%
O=C(Nc1cccc(C2OCCCO2)c1)c1cccs1	-2.5	·	-10	·	·	·	-11	-9	0.1	·
CN1c2ccsc2/C(=N/Nc2ccccc2)CS1(=O)=O	?	-44	-19	-33	-3.9	8.4	42	-6	0.5	·
COc1ccc(S(=O)(=O)N2CCCOC2CNC(=O)C(=O)NCCCn2ccnc2)cc1OC (stereo unspecified)	-2.5	-6	-1	8	2.8	-1.3	-2	-2	-0.8	-5%
CCOCCCNC(=O)C(c1ccccc1)N(Cc1cccs1)C(=O)CNC(C)=O (stereo unspecified)	2.5	·	-14	·	·	·	-7	1	0.2	32%
O=C(c1noc2c1CCCC2)N1CCOCC1	-0.8	2	-10	7	-0.8	-5.3	10	-5	-0.4	-3%
Cc1ccc2c(c1)C(c1ccccc1)N(C(=O)c1ccc3c(c1)OCO3)CC(=O)N2 (stereo unspecified)	4.6	-8	-6	-7	0.8	6.0	-9	8	1.6	·
CCn1c(SCC(=O)N(C)C)nc2cc(S(=O)(=O)N3CCOCC3)ccc21	1.4	8	0	8	-0.9	-1.6	2	4	-0.3	-9%
COc1ccc(C(=O)NCc2nnc(SCC(=O)c3ccccc3)n2C)cc1OC	-5.1	-2	1	4	-1.6	-1.5	-6	-6	0.8	0%
O=C(COC(=O)c1ccc(O)cc1O)Nc1cccc2ccccc12	·	-17	·	-13	1.5	-0.4	·	3	-1.9	·
CC(C)c1ccc(C(CC(=O)O)NC(=O)c2cccs2)cc1 (stereo unspecified)	-0.7	16	-1	12	-0.7	-2.7	-12	4	0.5	11%
O=C(CN1CCCCCC1)Nc1ccccc1Oc1ccccc1	3.1	-9.2*	-2	-41*	-8.7*	-0.8	6	2	-0.2	2%
CCc1ccccc1NC(=O)COc1ccc2oc(-c3ccc(OC)cc3)cc(=O)c2c1	1.6	15	5	8	-4.6	3.2	4	-1	0.6	-57%
COC(=O)c1ccccc1-c1ccc(/C=C2\C(=O)N(c3ccccc3)N=C2c2ccccc2)o1	-0.2	·	2	·	·	·	4	-1	0.4	3%
Cc1noc(C)c1S(=O)(=O)N1CCC(C(=O)O)CC1	·	·	·	·	·	0.4	·	-5	0.7	-4%
CCOC(=O)CN1C(=O)N[C@H](c2ccc(Br)cc2)C(C(C)=O)=C1C	0.5	-3	5	-2	-4.3	-39	-16	-1	1.0	·
CCOC(=O)N1CCN(C(=O)C2CCC(=O)N(CCCc3ccccc3)C2)CC1 (stereo unspecified)	1.3	9	-3	6	-0.1	-1.3	-6	-1	-0.1	·
COc1ccc(C)cc1NC(=O)COC(=O)c1c(C)nn(-c2ccccc2)c1C	·	-18	·	-12	-1.7	1.0	·	7	-5.0	·
COc1cc2c(cc1OC)C(c1ccc(C(F)(F)F)cc1)CC(=O)N2 (stereo unspecified)	-0.5	0	6	6	1.5	-8.6	18	-3	0.4	2%
CCC(SC1=N/C(=C/c2ccccc2)C(=O)N1c1ccccc1)C(=O)Nc1cc(C)on1 (stereo unspecified)	-2.8	16	-2	4	1.5	10	5	-1	1.0	-4%
OC1(C2(O)CC(c3ccccc3)ON2)CCCCC1 (stereo unspecified)	-2.5	·	4	·	·	·	-5	0	-0.1	11%
Cc1ccc(-c2n[nH]c(=O)c3ccccc23)cc1S(=O)(=O)NCC1CCCO1 (stereo unspecified)	-4.2	-4	0	0	-2.1	5.0	9	3	0.8	·
O=C(/C=C/C=C/c1ccccc1)CC1(O)C(=O)N(CCc2ccccc2)c2ccccc21 (stereo unspecified)	-2.5	·	-2	·	·	·	19	-1	0.6	2%
CCC(c1nnnn1Cc1ccco1)N(CCc1ccccc1)Cc1cc2cc(C)ccc2[nH]c1=O (stereo unspecified)	-6.9	·	-4	·	·	·	23	-4	-1.3	-2%
O=C(N/N=C/c1ccncc1)c1ccccc1[N+](=O)[O-]	2.8	17	-22	10	0.1	-0.4	-14	-9	0.4	-4%
O=C(CSc1ccc2nnc(-c3ccccn3)n2n1)NCc1ccco1	?	10	-3	7	1.5	-3.4	-3	2	0.4	17%
Cc1ccc(S(=O)(=O)N2CCOCC2)cc1C(=O)OCc1nnc(-c2ccccc2)o1	5.1	-17	3	-18	1.6	0.2	12	1	-0.8	-2%
CCN(Cc1ccccc1)C(=O)COc1ccccc1	0.2	-4	-7	2	1.9	-2.6	-4	·	-0.5	·

# 2 entries from above, with values under each structure.
# Order of results: RanGTP-Imp inh	rRNA inh HTS OD600	Calb FLC	rRNA inh HTS	rRNA inh HTS RFP	MLL AF4-AF9 inh	T cruzi inh	Beta cell apopt	Bfl-1 A1 inh	Vif TR-FRET
O=C(CSc1ccc2nnc(-c3ccccn3)n2n1)NCc1ccco1
  ?	10	-3	7	1.5	-3.4	-3	2	0.4	17%
Cc1cc(C)cc(OC(C)c2ccnc3nc(/N=C/N(C)C)nn23)c1 (stereo unspecified)
  3.9	·	19	·	·	·	4	2	-1.0	5%
